# Menin-MLL FL inh: inhibitors of human menin-MLL interaction, wild-type MLL peptide | 290,000 tested, under 10 active | Fluorescence polarization, fluorescein-MLL peptide displacement from menin | FP activity change, % at 61.4 µM; inconclusive = falling polarisation curve, or a change in total fluorescence; inactive = total fluorescence flat and polarisation flat or rising; no compound was filed as active; the % refers to the polarisation; negative = inhibition;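 also: % of control where 0% means no effect; inhibitors lower the polarisation; unlabelled MLL peptide was the positive control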
# gsp antag: antagonists of gsp mutant (McCune-Albright syndrome); gsp-mutant cells, cAMP HTRF, 30 min; control for the full effect not named in the record; Potency, µM (titrated, usually from 76.9 µM), for inactives: at the top dose activity change, negative = inhibition, hits mostly inhibitors; hit rate 0.4% among 340,000; active = falling curve of any shape with a large fitted effect; inconclusive = falling curve, mostly with a smaller effect; inactive = flat or rising curve; cell line not stated here;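 also: intracellular cAMP measured with PDE inhibitor Ro 20-1724 present during compound exposure; potency is read from the fitted curve at half-maximal effect; % is scaled to controls: 0 for no effect and ±100 for the full control effect; nearly all actives have a fitted effect of over 65% in size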
#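 Cells, 2000/well, grown 16–24 h in DMEM 10% FBS with 0.5 mg/ml G418, then compounds plus […] (300 uM addition stock), 30 min at 37C. cAMP read by HTRF (cAMP-d2 and anti-cAMP antibody-K in lysis buffer) after 30 min RT.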
# gsp ag: activates gsp, the McCune-Albright syndrome mutation; gsp mutant cells, cAMP HTRF, 30 min; control for the full effect not named in the record; Potency, µM (series often up to 76.9 µM), for inactives: at the top dose activation (cAMP increase), most hits filed as activators; hit rate 0.13% among 340,000; AID 624287; active = well fitted activation curve with a large enough effect; inconclusive = small, poorly fitted or top-dose-only effect, or another doubt; inactive = no such curve, though single readings can be large or run the other way; cell line not stated here;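 also: phosphodiesterase inhibitor Ro 20-1724 added with compounds to block cAMP breakdown; potency is read from the fitted curve at half-maximal effect; nearly all actives have a fitted effect of over 60% in size; about a fifth of the inactives were tested at one dose only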
#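 Cells in DMEM/10% FBS with G418 were pretreated with compounds in DMSO plus […] (300 uM stock) for 30 min at 37C. cAMP was measured by HTRF (cAMP-d2 plus anti-cAMP antibody-K) after 30 min at room temperature.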
# TRPV1 PAM: enhances activation of the human vanilloid receptor TRPV1. Q8NER1. TRPV1-expressing cells, Fluo-8 calcium influx, capsaicin EC20 potentiation; host cell line not named in the record; control for the full effect not named in the record. potentiation, % at 8.33 µM. hit rate 0.02% among 320,000. AID 540277; active means potentiation above 80%; inconclusive means 30% to 80%; inactive means below 30%; also: 0% is about no effect
# Target sequence (Q8NER1 whole entry, looked up): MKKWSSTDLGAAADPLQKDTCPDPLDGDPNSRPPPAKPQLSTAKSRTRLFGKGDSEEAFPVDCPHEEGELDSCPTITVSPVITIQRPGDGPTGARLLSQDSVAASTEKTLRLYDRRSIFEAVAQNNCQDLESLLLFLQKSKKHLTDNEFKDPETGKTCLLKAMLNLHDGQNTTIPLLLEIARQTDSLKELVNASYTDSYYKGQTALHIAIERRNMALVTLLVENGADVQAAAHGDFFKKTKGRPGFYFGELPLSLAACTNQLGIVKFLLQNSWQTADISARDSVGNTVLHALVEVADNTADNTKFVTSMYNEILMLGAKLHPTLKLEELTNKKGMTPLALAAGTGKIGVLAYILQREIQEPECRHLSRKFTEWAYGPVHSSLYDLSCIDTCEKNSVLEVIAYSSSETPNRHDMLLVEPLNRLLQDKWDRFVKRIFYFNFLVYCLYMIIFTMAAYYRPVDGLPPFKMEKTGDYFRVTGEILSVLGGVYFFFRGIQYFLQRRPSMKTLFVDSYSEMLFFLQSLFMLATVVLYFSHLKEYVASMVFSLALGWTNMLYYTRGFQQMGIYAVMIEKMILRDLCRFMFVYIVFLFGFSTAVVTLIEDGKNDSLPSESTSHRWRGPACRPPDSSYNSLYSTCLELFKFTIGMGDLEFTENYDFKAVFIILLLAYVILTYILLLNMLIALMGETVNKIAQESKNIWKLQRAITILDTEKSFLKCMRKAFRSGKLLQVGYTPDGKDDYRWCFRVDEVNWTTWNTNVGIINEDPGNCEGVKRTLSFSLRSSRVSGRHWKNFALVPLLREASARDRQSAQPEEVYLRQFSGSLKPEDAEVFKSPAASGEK
#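 TRPV1-expressing cells were cultured overnight at 35.5C and loaded with Fluo-8 calcium dye for 40 to 90 min at room temperature. After a 10 s baseline, compound was added and calcium influx was read kinetically for 3 min (ex 480/em 520 nm).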
# ClpP mod: qHTS Assay for Activators of ClpP; hit rate 1.9% among 340,000; purified B. subtilis ClpP, FRET peptide cleavage, 20 min; ATP-dependent Clp protease proteolytic subunit (Bacillus subtilis (strain 168)), P80244; Potency, µM (doses to about 57.5 µM), inactives show at the highest dose activity change, negative = active; active = well fitted falling curve with a large enough effect; inconclusive = small, poorly fitted or top-dose-only effect; inactive = no such curve, though single readings can be large or run the other way; also: potency is read from the fitted curve at half-maximal effect; the source files actives as falling curves though it sought activators and does not explain the sign; nearly all actives have a fitted effect of over 65% in size; many hits overshoot -100%
# Target sequence (P80244 whole entry, looked up): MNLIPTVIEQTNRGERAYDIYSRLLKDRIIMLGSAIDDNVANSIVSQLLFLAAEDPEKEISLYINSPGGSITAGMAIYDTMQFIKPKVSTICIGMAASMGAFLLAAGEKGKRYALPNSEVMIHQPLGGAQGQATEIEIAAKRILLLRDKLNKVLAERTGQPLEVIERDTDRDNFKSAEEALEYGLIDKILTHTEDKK
#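 FRET quenching reversal measured ClpP activation: 10 microg/mL B. subtilis ClpP at pH 8 with the FRET-FV decapeptide, read at 430 nm after 320 nm excitation. The 20-min minus 0-min signal was scaled between DMSO/no-enzyme wells and ADEP (5.8 microM final).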
# Sfp inh: inhibitors of Bacillus subtilis Sfp phosphopantetheinyl transferase. AID 1490. hit rate 3.5% among 310,000. Biochemical Sfp PPTase activity, qHTS. Potency, µM, for the others: max response, negative = inhibition, hits mostly inhibitors; active = well fitted inhibition curve with a large enough effect; inconclusive = small, poorly fitted or top-dose-only effect, or another doubt; inactive = no such curve, though single readings can be large or run the other way;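 also: the enzyme is Sfp with the accession as filed and its product quenches rhodamine fluorescence; potency is read from the fitted curve at half-maximal effect; 0% = enzyme reaction without inhibitor and -100% = no enzyme wells; top concentration of the series not given in the record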
#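 Buffer: 50 mM Hepes-Na pH 7.6, 10 mM MgCl2, 0.01% Nonidet P-40, 0.01% BSA. Enzyme 15 nM, pre-exposed to compound 15 min; substrates then added and fluorescence change tracked over 30 min.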
# D2 PAM: human D2 receptor positive allosteric modulation; hit rate 0.23% among 360,000; DiscoveRx D2 beta-arrestin cells, luminescence, 90 min; 100% = 57 uM dopamine signal; P14416; potentiation, % (concentration not given with the values); active = potentiation of 50% or more; inconclusive = 30% to 50%; inactive = 30% or less;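 also: compound concentration not given in the record; tested on top of an EC20 dose of dopamine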
#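 D2 cells co-treated with compound plus 50 nM dopamine (EC20) for 90 min at 37 deg C to detect potentiation. Beta-arrestin recruitment was read as enzyme-fragment luminescence after 1 h at ambient temperature. Full response was set by 57 uM dopamine.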
# * marks the source's active call; other numbers are inactive results; ? = inconclusive; . = not tested or not shown; [ ] = remark or other dose.
SMILES	Menin-MLL FL inh	gsp antag	gsp ag	TRPV1 PAM	ClpP mod	Sfp inh	D2 PAM
COC(=O)c1c(NC(=O)CSc2nncs2)sc2c1CCCCC2	4.3	-10%	5%	-20	-0.5%	-17%	-1
O=C(Nc1ccccc1)c1ccc(-c2ccccc2)s1	3.2	10%	-16%[15.4 µM]	-5	.	-2%	-27
OC(c1cc(-c2ccc(C(F)(F)F)cc2)nc(C(F)(F)F)c1)C1CCCCN1 (stereo unspecified)	2.2	-1%	-44%[inhibitor]	-7	-1.4%	?	-43
CCOc1ncccc1C(=O)OCc1ccc(C(=O)OC)cc1	-0.6	-11%	9%	-22	.	-11%	-4
NC(=O)C1CCN(C(=O)CC(c2ccccc2)c2ccccc2)CC1	1.0	4%	-23%	-19	.	5%	-4
COc1ccc(/C=C/C(=O)c2c(O)ccc3c(C)cc(=O)oc23)cc1	-0.2	-12%	0%	5	-2.1%	-16%	-3
COc1cc(NC(=S)NCCCN2CCOCC2)cc(OC)c1OC	2.5	-4%	4%	2	.	9%	-2
CCOC(=O)COn1c(=O)c(-c2ccc(C)cc2)[n+]([O-])c2ccccc21	-8.7	5%	6%	-7	-1.7%	6%	-6
Cc1ccccc1NC(=O)NC(C)(C)CC(C)(C)C	-6.1	14%	-14%	8	0.4%	12%	-11
Cc1[nH]n(-c2ccccc2)c(=O)c1C(C[N+](=O)[O-])c1ccc(Cl)cc1 (stereo unspecified)	-24	?	-12%[15.4 µM]	0	-16%	-6%	-17
O=C(Nc1cccnc1)c1cc(-c2ccccc2O)on1	2.5	-1%	0%	27	-3.2%	-16%	-13
Cc1ccc(NC(=O)c2ccc(OCc3c(C)noc3C)cc2)cc1C	.	?	7%[15.4 µM]	.	-1.4%	.	11
CCC(CC)C(=O)NCc1ccccc1Cl	2.4	16%	2%	19	-0.9%	24%	3
COc1ccc(-n2nc(C(=O)NCC(=O)Nc3ccccn3)c3ccccc3c2=O)cc1	4.9	13%	11%	-2	46%	36%	5
O=C1N[C@@H](Cc2ccccc2)C(=O)N2[C@H]3Nc4ccccc4[C@@]3([C@]34C[C@H]5C(=O)N[C@@H](Cc6ccccc6)C(=O)N5[C@H]3Nc3ccccc34)C[C@@H]12	.	-7%	1%	.	-3.9%	.	-10
OC(CN1CCN(Cc2ccccc2)CC1)Cn1c2ccccc2c2ccccc21 (stereo unspecified)	1.4	9%	2%	-5	-1.9%	3%	-29
COc1ccc(NC(=O)CSc2nc3ccccc3nc2N2CCCC2)c(OC)c1	-4.2	-8%	15%	21	-3.0%	-14%	-4
CN(C)c1ccc(/C=N/NC(=O)c2cccc(N3CCCC3=O)c2)cc1	0.1	?	-3%[15.4 µM]	0	.	-3%	3
O=C(c1ccco1)N1CCN(C(=S)Nc2ccc(F)cc2)CC1	.	5%	-16%	-2	-0.7%	6%	-5
Cc1c(Cl)cccc1NS(=O)(=O)c1ccc2c(c1)C1C=CCC1C(c1ccc(C(=O)O)cc1)N2 (stereo unspecified)	?	3%	-13%[15.4 µM]	8	.	?	1
CCCCn1c(CCc2ccccc2)nc2cc3[nH]c(=O)c(C(C)C)nc3cc21	-0.7	-4%	3%	4	3.6%	2%	-9
CCCc1ccc(OCc2ccc(C(=O)N3CCCC3)o2)cc1	-0.2	?	-4%[15.4 µM]	8	.	-10%	8
COc1ccncc1-c1ccccc1C1=CC(=O)CC(C)(C)C1=O	.	.	7%	.	-1.5%	.	4
Cc1ccc2c(C(=O)CN3CCC(C(N)=O)CC3)c(C)[nH]c2c1	3.9	.	.	-3	.	-8%	.
O=C(OCC(=O)N1CCCc2ccccc21)c1cnc(Cl)c(Cl)c1	5.9	-3%	17%	22	-2.3%	3%	1
CC(NC(=O)c1cccc(S(=O)(=O)N2CCN(Cc3ccccc3)CC2)c1)c1ccc(Br)cc1 (stereo unspecified)	.	1%	-10%	11	25µM*	2%	-3
CC(=O)Nc1nc(C)c(Cc2ccccc2)c(=O)[nH]1	2.6	3%	8%	21	-2.5%	12%	2
Cc1noc(C)c1C(=O)Nc1nc(-c2cccs2)cs1	.	-27%	-7%	11	-3.8%	.	-9
Cc1cc(C)c(NC(=O)CSCc2c(C)noc2C)c(Cl)c1	.	0%	-4%[15.4 µM]	3	-1.4%	.	-14
CCN(CC)C(=O)CSc1ncnc2c(-c3ccc(OC)cc3)nsc12	0.1	.	.	6	.	22%	.
CCn1c(=O)cc(SCC(=O)N2CCN(C(=O)c3ccco3)CC2)c2ccccc21	-0.8	-27%	?	14	-24%	21%	-10
O=C(O)CCN1C(=O)c2ccc(NC(=O)CCc3ccccc3)cc2C1=O	3.5	-2%	7%	2	4.4%	16%	-2
CC(=O)Nc1ccc(SC[C@H](Cc2ccccc2)N2CCN(CCc3ccccc3)CCC2=O)cc1	0.1	-8%	.	-6	1.6%	-10%	-16
N/C(=N\OC(=O)C1CCCCC1)c1ccc(Cl)cc1	.	2%	0%	2	2.4%	5%	-2
Cc1ccc(C)c(NC(=O)C(C)CC2COCCO2)c1 (stereo unspecified)	2.2	17%	-35%	-8	-1.1%	0%	2
Cc1cc(C)nc(SCC(=O)N(C)CC(=O)Nc2c(Cl)cccc2Cl)n1	.	10%	-3%[15.4 µM]	11	.	.	-69
CCCCCn1c(S(=O)(=O)O)nc2ccccc21	4.3	9%	-28%	0	-4.0%	7%	3
CCOC(=O)C1CCN(C(=O)c2cnn3c(C)cc(C)nc23)CC1	0.0	-2%	-4%	-38	32µM*	11%	0
CCNc1nc2nonc2nc1NCC	-0.3	1%	22%	-8	?	8%	-5
O=C(CN1C(=O)C2C3CCC(C3)C2C1=O)OCC(=O)c1cccc([N+](=O)[O-])c1 (stereo unspecified)	3.6	-7%	-7%	-1	0.3%	9%	-25
Cn1ccnc1SCc1ccc([N+](=O)[O-])cc1	2.1	-9%	?	0	0.5%	1%	7
O=C1CC(C(=O)Nc2ccc(C(=O)O)cc2)C(c2ccccc2)O1 (stereo unspecified)	4.8	-2%	6%	-2	-2.6%	21%	-7
O=C(NCc1ccccc1OC(F)(F)F)C1CCC(=O)N(Cc2ccccn2)C1 (stereo unspecified)	-0.2	19%	?	-4	1.6%	23%	-6
COc1ccc(S(=O)(=O)NCCC(=O)NCc2cccs2)cc1	-3.4	-1%	0%	-5	1.1%	0%	2
COc1ccccc1-c1c(C(F)(F)F)oc2cc(OC(=O)c3cccc([N+](=O)[O-])c3C)ccc2c1=O	1.0	-24%	-53%	2	0.6%	-2%	-12
Cc1c(NC(=O)c2cc3ccccc3oc2=O)c(=O)n(-c2ccccc2)n1C	4.1	5%	-20%	3	-0.1%	2%	3
COc1ccc2c(c1OC)C(C1c3c(cc4c(c3OC)OCO4)CCN1C)OC2=O (stereo unspecified)	4.7	9%	8%	-6	-3.1%	9%	-3
O=C(CSc1nc2ccccc2n1CC(=O)N1CCCC1)Nc1nccs1	2.5	4%	-67%[inhibitor]	1	-0.9%	9%	-5
C=CCn1c(SCc2ccccc2C#N)nnc1-c1ccccc1O	2.2	9%	?	6	-0.2%	-12%	-11
CCOc1ccccc1NC(=O)N1CCCc2ccccc21	-4.2	-3%	20%	-2	0.8%	-16%	11

# Further entries follow.
SMILES	Menin-MLL FL inh	gsp antag	gsp ag	TRPV1 PAM	ClpP mod	Sfp inh	D2 PAM
COc1ccc(C(NC(=O)c2ccc(-c3ccccc3)cc2)c2ccccc2)cc1 (stereo unspecified)	2.3	15%	12%	?	-1.8%	10%	5
CCOc1ccc(NC(=O)c2cc(Cl)nc3ccccc23)cc1	2.3	-14%	-1%[15.4 µM]	3	0.1%	-1%	-6
CC(C)CCN1CCC(n2nccc2NC(=O)C2CCOC2)CC1 (stereo unspecified)	-1.6	16%	25%	17	0.1%	-1%	-6
O=C(COC(=O)c1cccc(F)c1)Nc1cccc(S(=O)(=O)N2CCOCC2)c1	.	.	-94%[inhibitor]	.	-1.9%	.	-5
O=C(NCCCC(=O)N1CCOCC1)c1cccnc1	1.5	10%	-23%	1	0.3%	10%	-12
COc1ccc(N2CCN(c3nc(NCCc4ccc(OC)c(OC)c4)nc(OC)n3)CC2)cc1	5.5	-6%	1%	-3	-2.4%	3%	0
O=C(Nc1ccccc1)C(Cc1cccs1)c1nn[nH]n1 (stereo unspecified)	1.1	13%	-19%	7	1.1%	-8%	-4
CCOC(=O)N1CCC(c2cc(=O)n3[nH]ccc3n2)CC1	0.2	-5%	?	-2	5.0%	-22%	-3
C=CCNCCCCOc1ccc(OCc2ccccc2)cc1	-0.8	-9%	?	-2	-1.0%	-16%	-18
Cc1ccccc1Cn1nc(C)c(NC(=O)c2cc(-c3cccs3)on2)c1C	4.9	-31%	-6%	13	-6.0%	-21%	-12
CCOC(=O)/C(C#N)=N/Nc1c(C)n(C)n(-c2ccccc2)c1=O	-3.3	-14%	7%	-9	.	-90%	3
COc1cccc2sc(N3CCN(C(=O)c4ccco4)CC3)nc12	.	7%	-1%	-18	-12%	.	-6
COCCCNC(=O)C(=O)NCC(c1ccco1)N1CCN(c2ccc(OC)cc2)CC1 (stereo unspecified)	1.6	-10%	29%	-8	-0.4%	4%	-3
Cn1nc(C(F)(F)F)c2cc(C(=O)Nc3ccc(C(F)(F)F)cc3)sc21	2.3	-10%	0%[15.4 µM]	-53	0.8%	12%	-13
CCOC(=O)c1cc(C#N)c(N2CCN(C(=O)c3ccccc3)CC2)nc1C(F)(F)F	3.2	-15%	9%[15.4 µM]	-18	.	-13%	1
COc1ccc(-c2c(C)oc3c(CN4CCCCC4C)c(O)ccc3c2=O)cc1 (stereo unspecified)	1.5	-19%	13%[15.4 µM]	1	-4.4%	12%	-6

# Screens (PubChem BioAssay)
